# BJeLR viab HTS – lowers viability of BJeLR cells. BJeLR fibroblasts viability, CellTiterGlo ATP luminescence, 48 h; HRASV12, hTERT and SV40 LT/ST transformed. viability loss activity score, % (no concentration beside the values). 0.64% of 30,000 active; in the data active = viability loss activity score above about 50%; about a fifth of its hits are not listed in these tables;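 also: higher score means fewer live cells and less ATP luminescence; stock transfer was 50 or 100 nL into about 30 µL; 0% = vehicle wells and 100% = a reference killing control; one replicate is shown; the record names a cut of 85%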
# A1 inhib – A1 inhibition | 0.51% of 21,000 active | caspase activation, % (concentration not given with the values) | AID 2241 | MEF A1-2A-BIM cells, caspase-Glo luminescence, 3 h; percent of clofoctol signal, DMSO as zero;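 active = most replicate scores above 10, or exactly half above 10 with mean activity above 10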;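 also: effector caspase 3 and 7 activity cleaving a DEVD luciferin substrate; 50 nL library stock added to about 30 µL; numbers are from one replicate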
# * = called active by the depositor; . = not tested or not shown. Some of the compounds tested; rates above refer to the full screens.
SMILES,BJeLR viab HTS,A1 inhib
CC(C)C[C@](CC(=O)OCc1ccc(O[C@@H]2O[C@H](CO)[C@@H](O)[C@H](O)[C@H]2O)cc1)(O[C@@H]1O[C@H](CO)[C@@H](O)[C@H](O)[C@H]1O)C(=O)OCc1ccc(O[C@@H]2O[C@H](CO)[C@@H](O)[C@H](O)[C@H]2O)cc1,-12,0.0
COc1ccc(C2C(C#N)=C(N)OC3NN=C(C)C32)cc1COc1cccc(Cl)c1 (centres undefined),-3.7,2.0
OC(CCN1CCOCC1)(c1ccc(Cl)cc1)C1CCCCC1 (centres undefined),-3.3,0.7
O=C(CCSc1nc(-c2ccco2)cc(C(F)(F)F)n1)NCc1ccncc1,-2.7,.
O=C(c1ccccc1)c1cccc(N=Cc2c(O)[nH]c(=O)[nH]c2=O)c1,-5.2,-1.0
Cc1noc(C)c1NC(=O)Nc1cccc2c1O[C@@H](CN(C)Cc1ccc(C(=O)O)cc1)[C@@H](C)CN([C@H](C)CO)C2=O,-0.5,.
C[C@@H]1CN([C@H](C)CO)C(=O)c2cc(NS(=O)(=O)c3ccc(F)cc3)ccc2O[C@@H]1CN(C)C(=O)NC1CCCCC1,-1.2,0.2
CCOc1ccc(C2=NCCNC3=C2C(c2ccccc2)N(c2ccccc2)C3=O)cc1 (centres undefined),2.7,0.4
COc1ccc(S(=O)(=O)Nc2ccc3c(c2)C(=O)N([C@@H](C)CO)C[C@H](C)[C@H](CN(C)S(=O)(=O)c2cn(C)cn2)O3)cc1,-4.1,1.0
O=C(CC(Sc1ccccc1C(=O)O)c1ccc(F)cc1)c1ccc(F)cc1 (centres undefined),0.5,-2.5
COC(=O)c1c2c(n3cc4ccccc4cc13)C(=O)c1ccccc1C2=O,-0.9,.
O=C(Cn1ncn2nc(-c3ccco3)cc2c1=O)NCc1ccccc1,-0.3,1.2
Cc1noc(C)c1NC(=O)N(C)C[C@@H]1Oc2c(NC(=O)NC(C)C)cccc2C(=O)N([C@H](C)CO)C[C@@H]1C,-6.0,.
CCc1cc(Cl)c(OC)c(C(=O)NC[C@@H]2CCCN2CC)c1O,-0.2,-0.1
C[C@@H]1CN([C@@H](C)CO)C(=O)c2cc(NC(=O)Nc3cccc4ccccc34)ccc2O[C@H]1CN(C)Cc1ccc(C(F)(F)F)cc1,1.3,0.5
C[C@H](CO)N1C[C@H](C)[C@H](CN(C)C(=O)Nc2ccc3c(c2)OCO3)Oc2ccc(NS(=O)(=O)c3cn(C)cn3)cc2C1=O,3.2,-0.2
COc1ccc(NC(=O)N(C)C[C@H]2Oc3c(NC(=O)c4ccncc4)cccc3C(=O)N([C@H](C)CO)C[C@H]2C)cc1,1.1,.
CC(=O)N1CC(C)Sc2cc(S(=O)(=O)NCc3ccco3)ccc21 (centres undefined),5.6,-0.4
C[C@H](CO)N1C[C@H](C)[C@H](CN(C)C(=O)NC2CCCCC2)Oc2ccc(N(C)C)cc2C1=O,-2.6,0.1
O=C(NCCO)N1c2ccccc2Sc2ccccc21,-3.1,0.8
Cc1ccc(S(=O)(=O)NC(=O)N(C)C2CCCCC2)cc1,0.7,-0.1
C[C@H](CO)N1C[C@H](C)[C@@H](CN(C)Cc2ccccc2)Oc2ccc(NC(=O)CCN3CCOCC3)cc2C1=O,-4.7,0.4
O=C1CCC(=O)N1Nc1nc2ccccc2c2nc(-c3ccccc3)nn12,-3.7,.
O=C(c1ccc(Br)cc1)C(C(=O)N1CCCCC1)n1ccccc1=O (centres undefined),1.4,-0.3
CC(O)CC(=O)c1cc(O)ccc1O (centres undefined),-6.0,-0.4
COc1ccc(NC(=O)N(C)C[C@@H]2Oc3c(NS(=O)(=O)c4ccc(OC)cc4)cccc3C(=O)N([C@@H](C)CO)C[C@@H]2C)cc1,-1.9,.
Cc1ccc2c(N)c(C(=O)c3ccc(Cl)cc3)sc2n1,2.3,-0.3
C[C@@H]1CN([C@@H](C)CO)C(=O)c2cccc(NC(=O)c3cnccn3)c2O[C@H]1CN(C)S(=O)(=O)c1ccccc1,2.3,.
N#CCCN1CCN(S(=O)(=O)c2ccc(C#N)cc2)CC1,-0.2,.
O=C(Nc1ccccc1)Nc1cccc(-c2nnco2)c1,-0.7,-3.3
C[C@H](CO)N1C[C@H](C)[C@H](CN(C)C(=O)NC2CCCCC2)Oc2ccc(NC(=O)Nc3ccc(F)cc3)cc2C1=O,0.4,0.2
C[C@H](CO)N1C[C@H](C)[C@@H](CN(C)Cc2ccc(Cl)c(Cl)c2)Oc2ccc(NC(=O)Cc3cn(C)c4ccccc34)cc2C1=O,1.1,0.0
C[C@@H]1CN([C@H](C)CO)C(=O)c2cc(NC(=O)NC3CCCCC3)ccc2O[C@@H]1CN(C)Cc1ccccc1,-1.3,-0.1
C[C@@H]1CN([C@@H](C)CO)C(=O)c2cccc(NC(=O)c3ccc(-c4nccs4)cc3)c2O[C@H]1CN(C)S(=O)(=O)c1cccs1,-2.1,.
CN1CCN(c2ccc(Nc3ccnc4cc(Cl)ccc34)cc2Cl)CC1,35,2.2
Cc1cc2nc(C)n(CCCNC(=O)Nc3cccc4ccccc34)c2cc1C,3.0,-0.1
Cc1ccc(S(=O)(=O)Nc2ccc3c(c2)C(=O)N([C@H](C)CO)C[C@H](C)[C@@H](CN(C)S(=O)(=O)c2cn(C)cn2)O3)cc1,2.1,0.0
COc1ccc(CN(C)C[C@@H]2Oc3c(NS(=O)(=O)c4ccc(F)cc4)cccc3C(=O)N([C@@H](C)CO)C[C@H]2C)cc1,4.3,.
C[C@@H]1CN([C@@H](C)CO)C(=O)c2cccc(NS(=O)(=O)c3cn(C)cn3)c2O[C@H]1CN(C)Cc1ccccc1,9.0,.
Cc1ccc2cc3c(nc2c1)N(Cc1ccco1)CC3,8.6,-1.4
CCc1ccc(S(=O)(=O)NCCc2cn3ccccc3n2)s1,-0.8,0.2
O=C(CNc1ccc2c(c1)oc1ccccc12)c1ccc(F)cc1,3.3,.
CC(=O)Nc1ccccc1C(=O)N(Cc1ccccc1)Cc1ccccc1,-2.1,0.4
O=C(CSc1ncnc2c1nnn2-c1ccc(F)cc1)N1CCCc2ccccc21,3.1,-1.7
C[C@H](CO)N1C[C@H](C)[C@H](CN(C)S(=O)(=O)c2ccc(Cl)cc2)Oc2c(NC(=O)NC3CCCCC3)cccc2C1=O,0.4,.
CCC(=O)N1N=C(c2ccccc2)CC1c1ccc(N(C)C)cc1 (centres undefined),3.2,.
CC1CC(C)CN(C(=O)c2ccc(CNS(=O)(=O)c3ccc(F)cc3)cc2)C1 (centres undefined),9.1,-0.2
COc1ccc(NC(=O)Nc2ccc3c(c2)C(=O)N([C@@H](C)CO)C[C@@H](C)[C@H](CN(C)S(=O)(=O)c2ccc(F)cc2)O3)cc1,3.0,1.0
O=C(COc1ccc2ccccc2c1)Nc1ccc2nn(-c3ccccc3)nc2c1,1.4,0.6
C[C@H](CO)N1C[C@H](C)[C@H](CN(C)S(=O)(=O)c2ccccc2)Oc2c(NS(=O)(=O)c3ccc(F)cc3)cccc2C1=O,-1.3,.
CC(C)=CCCC(C)(O)C(O)Cc1cc(C(=O)O)cc(CC=C(C)C)c1O (centres undefined),-0.9,0.7
C=CCN1C(=O)/C(=C\c2ccc(OC(=O)c3ccco3)c(OC)c2)SC1=S,-1.4,-4.1
CCCC(=O)Nc1ncnc2c1ncn2[C@@H]1O[C@@H]2OP(=O)(O)OC[C@H]2[C@H]1OC(=O)CCC,-3.5,0.8
O=C(Nc1ccc(S(=O)(=O)Nc2nccs2)cc1)N1c2ccccc2Sc2ccccc21,-3.7,0.0
Cc1noc(C)c1NC(=O)Nc1cccc2c1O[C@@H](CN(C)C(=O)Nc1ccc3c(c1)OCO3)[C@H](C)CN([C@H](C)CO)C2=O,4.1,.
CC1(C)COC(/C=C(\N)c2ccc(Br)cc2)=N1,6.0,-3.6
CC(C)C(=O)Nc1cccc(-c2nc3ccccc3c(=O)o2)c1,1.2,-1.9
C[C@@H]1CN([C@@H](C)CO)C(=O)c2cc(NC(=O)Nc3ccc4c(c3)OCO4)ccc2O[C@H]1CN(C)Cc1ccc(C(F)(F)F)cc1,4.5,-0.4
COc1ccc(CCNC(=O)C2CCCN(S(=O)(=O)c3cccc4nonc34)C2)cc1OC (centres undefined),-0.5,.
CC(=O)Nc1c(O)[nH]c2ccc(C)cc12,-0.5,.
# Continued:
SMILES,BJeLR viab HTS,A1 inhib
Cc1ccc2[nH]c(=O)c3cc(C(=O)NCC4COc5ccccc5O4)sc3c2c1 (centres undefined),1.8,.
CCOc1ccc2nc(-c3nc4ccccc4s3)sc2c1,17,.
COc1ccc(CN(C)C[C@H]2Oc3ccc(NC(=O)Nc4ccc5c(c4)OCO5)cc3C(=O)N([C@H](C)CO)C[C@@H]2C)cc1,2.0,-0.5
ONC=Nc1ccc2nnc(-c3ccccc3)n2n1,3.5,0.2
CCCCC[C@H](O)/C=C/[C@@H]1[C@H]2C/C(=C/CCCC(=O)O)C[C@H]2C[C@H]1O,-2.2,0.3
CC(C)NC(=O)CCCn1c(=S)[nH]c2ccc(Br)cc2c1=O,3.3,-0.4
CCC(C)NC(=O)c1ccc(CS(=O)(=O)Cc2ccc(Cl)cc2)o1 (centres undefined),-1.4,0.4
C[C@H](CO)N1C[C@H](C)[C@@H](CN(C)CC2CCCCC2)Oc2c(NS(=O)(=O)c3ccc(Cl)cc3)cccc2C1=O,-0.3,.
Cc1ccc(S(=O)(=O)N(C)C2CCCCC2)cc1-c1nnc2c3ccccc3c(C)nn12,-3.8,.
Cc1noc(C)c1NC(=O)Nc1cccc2c1O[C@H](CN(C)C(=O)Nc1ccc(C(F)(F)F)cc1)[C@@H](C)CN([C@H](C)CO)C2=O,-1.2,.
CCN1/C(=C\C(=S)Nc2ccccc2)Sc2ccccc21,0.0,-0.9
Cn1c(=O)cc(N2CCOCC2)c2c(=O)n(-c3ccccc3)c(=O)n(-c3ccccc3)c21,2.3,0.6
CCOc1ccccc1N1C(=O)CC(N(O)c2ccccc2)C1=O (centres undefined),0.7,.
O=c1c2ccccc2oc2ccc(O)cc12,-0.8,-1.1
C[C@@H]1CN([C@H](C)CO)C(=O)c2cc(NC(=O)Cc3cn(C)c4ccccc34)ccc2O[C@@H]1CN(C)C(=O)Nc1ccc(F)cc1,0.3,0.1
COc1ccc(S(=O)(=O)Nc2cccc3c2O[C@H](CN(C)Cc2ccccc2)[C@@H](C)CN([C@H](C)CO)C3=O)cc1,1.9,.
C[C@H]1CN([C@@H](C)CO)C(=O)c2cc(NS(=O)(=O)c3ccccc3)ccc2O[C@H]1CN(C)Cc1ccc(C(F)(F)F)cc1,-0.9,0.3
CC(=O)Nc1ccc2oc3ccccc3c2c1,-3.9,-0.7
C[C@H](CO)N1C[C@H](C)[C@H](CN(C)Cc2ccc(C(=O)O)cc2)Oc2ccc(NC(=O)c3ccncc3)cc2C1=O,-0.4,0.2
CCCn1c(-c2cccs2)n[nH]c1=O,-1.2,.

# Screening data (PubChem)
